Bioassay records: PubChem, several laboratories
E coli growth: E. coli growth inhibition, primary screen, OD600. Escherichia coli growth, 23 h; hits give low values. OD600 absorbance (no concentration beside the values). 0.21% of 330,000 active. AID 1053175, 2014;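 active = OD600 absorbance below the run mean of sample wells minus 3.6 SD, in any replicate, cut at about 0.56 in these data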;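 note: stock transfer was 300 nL into about 60 µL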
Ecoli rRNA inh: reduced GFP signal of wild-type E. coli, primary screen, bacterial rRNA inhibitor project, GFP/RFP fluorescence, OD600, single point; E. coli WT GFP vs humanized-ribosome RFP mutants, 24 h; hits give low values; DMSO median 0, no signal -100; GFP signal change (wild-type ribosome), % (concentration not given with the values); 1.6% of 350,000 active;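 active = significant combined selectivity score with lowered wild-type GFP, culture density cut under 30%, mutant RFP and density less affected; inactive = any of these conditions unmet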; note: one replicate is shown; some compounds called inactive have numbers as strong as hits
FGF22 binding: binders of human FGF22 protein, primary screen, FGF22 synaptogenesis inhibitor project, biophysical, thermal shift, single point; AID 651658, 2012; calls only at 9.99 µM; recombinant FGF22 thermal shift, SYPRO orange fluorescence; percent of sucrose octasulfate shift, DMSO zero; Fibroblast growth factor 22 (Homo sapiens), Q9HCT0; 1.5% of 340,000 active;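 active = melting point raised past a set limit in the mean and every replicate; inconclusive = no clear call; three in four hits are not shown here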
Target sequence (Q9HCT0 whole entry, looked up): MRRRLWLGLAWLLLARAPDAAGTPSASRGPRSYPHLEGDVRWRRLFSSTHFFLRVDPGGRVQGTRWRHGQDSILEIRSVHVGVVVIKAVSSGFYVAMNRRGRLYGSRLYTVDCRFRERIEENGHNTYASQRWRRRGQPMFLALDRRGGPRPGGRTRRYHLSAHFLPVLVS
Beta2AR agonist: beta2AR agonists driving receptor internalization, primary screen, cell-based, FAP fluorogen, flow cytometry; Beta-2 adrenergic receptor (Homo sapiens), P07550; Am2.2-beta2AR cells; reference of the scale not given here; response, % (test concentration not listed); 0.43% of 340,000 active; AID 504454, 2011;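 active = response above a set limit, near 3 SD of response in nonfluorescent compounds, cut at about 42% in these data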;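 note: stock transfer was 100 nL into about 11 µL; a reference agonist was the positive control; negative values mostly stem from fluorescent compounds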
Target sequence (P07550 whole entry, looked up): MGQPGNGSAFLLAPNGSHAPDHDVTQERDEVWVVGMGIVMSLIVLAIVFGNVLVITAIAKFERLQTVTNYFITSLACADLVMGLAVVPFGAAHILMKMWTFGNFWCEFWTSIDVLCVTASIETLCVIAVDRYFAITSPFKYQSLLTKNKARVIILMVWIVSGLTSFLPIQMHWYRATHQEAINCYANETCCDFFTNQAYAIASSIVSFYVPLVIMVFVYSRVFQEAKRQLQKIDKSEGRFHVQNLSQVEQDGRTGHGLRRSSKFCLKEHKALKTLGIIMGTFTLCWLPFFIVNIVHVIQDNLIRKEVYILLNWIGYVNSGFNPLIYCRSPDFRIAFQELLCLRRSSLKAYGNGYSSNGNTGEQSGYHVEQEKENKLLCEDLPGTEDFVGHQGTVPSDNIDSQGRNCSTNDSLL
HNF4A DNA FP: change in binding of human HNF4A to DNA, primary screen, biochemical, fluorescence polarization, FITC-DNA | Hepatocyte nuclear factor 4-alpha (Homo sapiens), P41235 | 1 h | activity change, % at 10 µM | 0.3% of 360,000 active; in the data active = activity change above about 30%, passing the limit was not always enough;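 note: controls were the assay level and a saturating level of protein; the project sought stronger binding though the title names inhibitors; some compounds called inactive have numbers as strong as hits; positive values seem to mean higher polarization but the record does not say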
Target sequence (P41235 whole entry, looked up): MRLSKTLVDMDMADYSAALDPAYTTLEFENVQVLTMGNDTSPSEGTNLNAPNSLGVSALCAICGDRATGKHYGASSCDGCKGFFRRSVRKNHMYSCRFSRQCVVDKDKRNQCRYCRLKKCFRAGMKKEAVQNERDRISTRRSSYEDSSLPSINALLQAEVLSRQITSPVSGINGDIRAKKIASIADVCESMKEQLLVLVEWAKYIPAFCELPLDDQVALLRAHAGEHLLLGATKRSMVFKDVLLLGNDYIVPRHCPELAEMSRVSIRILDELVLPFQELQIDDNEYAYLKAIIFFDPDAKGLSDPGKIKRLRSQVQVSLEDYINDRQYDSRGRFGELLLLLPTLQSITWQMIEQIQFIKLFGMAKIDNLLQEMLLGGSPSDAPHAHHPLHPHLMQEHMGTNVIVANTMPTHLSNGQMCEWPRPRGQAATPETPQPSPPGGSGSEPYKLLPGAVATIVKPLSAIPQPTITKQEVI
UCH37 DUB inh: inhibitors of human UCH37 deubiquitinase, primary screen, biochemical, Ub-AMC cleavage, fluorescence. Ubiquitin carboxyl-terminal hydrolase isozyme L5 (Homo sapiens), Q9Y5K5. 0.33% of 330,000 active. purified proteasome/UCH37. inhibition, % (test concentration not listed). AID 588478, 2011;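 active = mean of two replicates above 20%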;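 note: 0% = compound-free wells with enzyme and 100% = wells lacking proteasome; stock transfer was 100 nL into about 20 µL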
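system = Proteasome-associated human UCH37 deubiquitinase | amount = 0.15 nM proteasome as dispensed | medium = pH 7.4 Tris-HCl (50 mM) with ovalbumin, ATP-MgCl2, DTT | incubation = 30 min preincubation with enzyme, 25 min cleavage at room temperature | detection = AMC fluorescence 355/460 nm | read-out basis = percent inhibition | controls = no-proteasome and no-compound wells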
ALR H2O2 inh: inhibitors of human ALR sulfhydryl oxidase, primary screen, biochemical, H2O2 detection, HRP-luminol luminescence, single point | inhibition, % (test concentration not listed) | purified ALR, DTT oxidation | AID 485317, 2010 | 3.8% of 290,000 active | FAD-linked sulfhydryl oxidase ALR (Homo sapiens), P55789;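 active = mean and each replicate at 75% or more; inconclusive = only one of the two met; inactive = neither met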;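 note: stock transfer was 7.5 nL into about 7.5 µL; 0% = neutral wells and 100% = wells with inactivated enzyme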
Ecoli rRNA inh OD600: also measured in Ecoli rRNA inh; calls as there; OD600 change, %; measured here: OD600 growth;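 optical density of the mix in the first replicate; 0 = DMSO median and -100 = no signal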
Ecoli rRNA inh RFP: further read-out of Ecoli rRNA inh, marked with its call; RFP signal change, %; measured here: RFP humanized mutant strains;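 first replicate; 0 = DMSO median and -100 = no signal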
* = called active by the depositor; i = inactive; ? = inconclusive; . = no result given; & = joins results of further samples. An excerpt; rates above refer to the full screens.

SMILES,E coli growth,Ecoli rRNA inh,Ecoli rRNA inh OD600,Ecoli rRNA inh RFP,FGF22 binding,Beta2AR agonist,HNF4A DNA FP,UCH37 DUB inh,ALR H2O2 inh
COc1ccc(C2=C/C(=C/c3cccnc3)C(=O)O2)cc1OC,0.7,0,15,2.5,i,26,9.3,1.3,-23
CC1=C(C(=O)N2CCOCC2)CC(CC(=O)NCc2cccs2)C(=O)N1Cc1ccccc1 (stereo unspecified),.,10,22,2.4,i,.,0.7,.,.
COc1cc(C(=O)COC(=O)c2cc([N+](=O)[O-])ccc2N2CCOCC2)ccc1OC(F)F,0.71,-4,-2,0.4,i,5,0.4,3.3,-3
COC(=O)c1sc(NC(=S)NC(=O)c2ccc(F)cc2)nc1C,0.69,20,25,2.3,.,.,.,3.5,-13
O=C(CSc1nc2ncc(Br)cc2[nH]1)c1cccc([N+](=O)[O-])c1,0.61,15,9,-0.9,i,-14,3.3,4.0,?
O=C(Nc1ccccc1)Nc1cccc2nsnc12,0.64,-25,-40,8.4,i,3,0.1,-19,-122
Cc1ccc(C(=O)Nc2ccnc(-c3ccncc3)n2)cc1,0.7,5,7,0.2,i,2,-2.7,3.4,-9
CCCNC(=O)CS(=O)(=O)c1ccccc1,0.63,12,12,11,i,-6,1.7,0.8,-1
CC(=O)NCCNc1nc2cc(-c3ccc(Cl)cc3C)sc2c(=O)n1C,.,-9,-18,-3.3,i,.,-1.7,.,.
Cc1cc(Cl)ccc1OCC(=O)OCC(=O)Nc1cccnc1Cl,0.71,2,-4,-1.4,i,5,1.0,4.6,.
CCOC(=O)Cc1csc(NS(C)(=O)=O)n1,0.67,5,7,4.5,.,14,-4.1,0.5,3
Cc1nc2ccccc2c2oc(C(=O)N3CCN(C4CCCCC4)CC3)cc12,0.75,-2,5,1.7,i,-15,-0.2,6.0,-14
CN(C(=O)COC(=O)C(Cc1ccccc1)NC(=O)c1ccccc1)c1ccccc1 (stereo unspecified),0.73,.,.,.,.,7,0.3,4.0,.
COc1ccc(O)c(C(=O)CC(=O)c2cccnc2)c1,0.66,-2,-12,-6.0,i,-11,0.3,-138,.
CC1(C)Cc2[nH]c3ccccc3c2C(C)(C)N1,0.66,10,3,-0.8,i,-2,2.8,-2.2,1
CC(C)c1ccc(-n2nc3ccc(N)cc3n2)cc1,0.69,.,.,.,i,5,-3.5,5.5,-2
O=C(c1cccc(F)c1)N1CCN(c2ccc([N+](=O)[O-])c3cccnc23)CC1,0.68,-18*,-11*,4.4*,i,5,2.0,5.1,-27
CCCC(=O)N=c1sc2cccc(F)c2n1C,0.78,3,6,-2.0,i,3,2.5,-0.3,2
CCc1nc(N2CCN(C(C)=O)CC2)c2c3c(sc2n1)CCCC3,0.69,-24,-27,-2.9,i,-9,2.6,-1.3,3
CCCCn1c(-c2cc(Cl)ccc2OC)n[nH]c1=S,0.68,.,.,.,.,2,-0.4,3.0,52
CCOC(=O)c1c(C)oc2ccc(OCC(N)=O)cc12,0.65,.,.,.,.,5,-3.2,2.7,3
C[C@H](CO)N1C[C@H](C)[C@@H](CN(C)S(C)(=O)=O)OCc2cnnn2CCCC1=O,.,3&2,11&1,-5.2&-2.2,i,.,-2.7,.,.
COc1ccc(C2=Nc3ccccc3N(C(=O)c3cccnc3)C2C(=O)NC2CCCC2)cc1 (stereo unspecified),.,-3,3,2.2,i,.,0.0,.,.
Cc1ccc(S(=O)(=O)NCC(=O)N(CC(=O)NCc2ccccc2)CC2CCCO2)cc1 (stereo unspecified),0.66,.,.,.,.,-2,1.5,6.0,-4
O=c1c2sccc2n(Cc2ccc(F)cc2)c(=O)n1-c1ccc(F)cc1,0.69,.,.,.,.,-3,0.0,0.3,-2
CC(C)CN(Cc1c(O)ccc2c(=O)c(-c3ccccc3)coc12)CC(C)C,0.71,0,-3,-0.5,i,3,-0.7,-136,-7
CCCS(=O)(=O)c1c(S(=O)(=O)CCC)c2c(N)cccn2c1C(=O)OC,0.68,19,12,13,i,14,-5.3,1.1,0
O=C(CSc1nnc(Cn2c(=O)sc3ccccc32)n1-c1ccccc1)N1CCCCCC1,0.71,-2,-4,-0.2,i,-5,3.2,-0.8,-13
Oc1ccc(-c2nc(=S)[nH][nH]2)cc1,0.79,.,.,.,.,-5,1.1,-2.6,.
CCOc1ccc(C(=O)C[n+]2ccc(C(=O)NCCO)cc2)cc1,0.71,14,11,-0.4,i,0,4.3,1.0,1
O=C(CCS(=O)(=O)c1ccc(F)cc1)Nc1nnc(-c2cccs2)o1,0.68,6,0,3.5,i,2,-3.2,1.5,.
O=C(NC1CCCC1)c1cc2cc(Br)ccc2o1,0.71,-4,-2,-3.2,i,3,-1.3,3.9,-6
COc1ccc(Cc2nnc(SCC(=O)NCc3ccco3)o2)cc1,0.72,.,.,.,.,-7,2.4,0.4,3
O=c1c([N+](=O)[O-])c(N2CCCC2)c2ccccc2n1-c1ccccc1,0.73,6,5,-3.8,i,1,-0.3,8.7,27
CC(=O)c1ccc(N2CCN(C(C)C(=O)NC3CCCc4ccccc43)CC2)cc1 (stereo unspecified),0.69,.,.,.,.,3,-1.2,3.6,-16
CCOC(=O)CSc1nc2cc(S(=O)(=O)Nc3ccccc3OC)ccc2o1,0.69,-9,-5,-0.4,i,9,0.5,3.2,-6
Cc1sc2nc(CN(CCc3ccccc3)C(=O)c3ccco3)[nH]c(=O)c2c1C,0.74,.,.,.,.,.,.,6.8,9
C=CCC(C)(NCc1ccccc1)c1ccc(C)cc1 (stereo unspecified),0.68,-4,-4,0.3,i,5,-0.1,2.8,-10
CCCOC(=O)CSC1=C(C#N)C(c2ccc3c(c2)OCO3)CC(=O)N1 (stereo unspecified),0.68,.,.,.,.,8,-1.6,3.8,6
O=C(NCc1ccccc1)c1ccc2c(c1)S(=O)(=O)c1cc(Cl)ccc1C2=O,0.68,2,7,-6.0,i,-7,-1.1,5.5,-1
COc1ccc(NC(=O)CC2CCCC2)cc1OC,0.69,6,6,-2.3,i,-2,2.8,3.4,-19
CC(=O)c1c(C)[nH]c(C(=O)Nc2ccc(C)c(S(=O)(=O)N(C)C)c2)c1C,0.7,-2,3,13,.,1,1.8,2.3,-9
O=C(NC1CCCCCCC1)c1ccc(S(=O)(=O)N2CCCC2)cc1,0.76,.,.,.,.,0,0.3,-0.2,-10
O=c1[nH]c(=O)n(Cc2ccco2)c2c1C(C(F)(F)F)(C(F)(F)F)N=C(C1CCCCC1)N2,0.7,.,.,.,.,-13,1.1,-30,-9
COc1ccc(C(=O)OC(C)CN2CCOCC2)cc1 (stereo unspecified),0.66,5,17,-1.0,i,-9,-0.2,2.2,-27

For reference, some entries already given:
SMILES,E coli growth,Ecoli rRNA inh,Ecoli rRNA inh OD600,Ecoli rRNA inh RFP,FGF22 binding,Beta2AR agonist,HNF4A DNA FP,UCH37 DUB inh,ALR H2O2 inh
Cc1sc2nc(CN(CCc3ccccc3)C(=O)c3ccco3)[nH]c(=O)c2c1C,0.74,.,.,.,.,.,.,6.8,9
C=CCC(C)(NCc1ccccc1)c1ccc(C)cc1 (stereo unspecified),0.68,-4,-4,0.3,i,5,-0.1,2.8,-10
CCCOC(=O)CSC1=C(C#N)C(c2ccc3c(c2)OCO3)CC(=O)N1 (stereo unspecified),0.68,.,.,.,.,8,-1.6,3.8,6
O=C(NCc1ccccc1)c1ccc2c(c1)S(=O)(=O)c1cc(Cl)ccc1C2=O,0.68,2,7,-6.0,i,-7,-1.1,5.5,-1
COc1ccc(NC(=O)CC2CCCC2)cc1OC,0.69,6,6,-2.3,i,-2,2.8,3.4,-19
CC(=O)c1c(C)[nH]c(C(=O)Nc2ccc(C)c(S(=O)(=O)N(C)C)c2)c1C,0.7,-2,3,13,.,1,1.8,2.3,-9

Next section
SMILES,E coli growth,Ecoli rRNA inh,Ecoli rRNA inh OD600,Ecoli rRNA inh RFP,FGF22 binding,Beta2AR agonist,HNF4A DNA FP,UCH37 DUB inh,ALR H2O2 inh
Cc1ccc(NC(=O)CN2CCC(NC(=O)Cc3ccccc3)CC2)c(C)c1,0.68,-5,-5,-2.3,i,-3,1.2,0.6,-1
Cn1c2c(c(=O)n(C)c1=O)C(c1ccc(C(F)(F)F)cc1)CC(=O)N2 (stereo unspecified),0.72,.,.,.,.,-7,0.7,3.2,-9
Cc1cc(C)cc(OCC(=O)Nc2ccncc2)c1,0.69,-6,-6,-10.0,i,0,2.3,0.6,-24
COC(=O)c1c(C)[nH]c(C(=O)C(C)OC(=O)C2CC2C)c1C (stereo unspecified),0.65,-4,-7,-2.4,i,-2,2.4,-0.9,4
COc1ccc(N2CCN(CCCNC(=O)c3ccc(CS(=O)(=O)c4ccc(Cl)cc4)o3)CC2)cc1,0.69,-11,-3,0.7,i,-2,-3.2,1.7,61
CCCS(=O)(=O)Nc1ccc2cn[nH]c2c1,0.7,-4,0,-3.6,i,0,2.2,3.2,-16
O=C(c1ccc(N2CCCC2)c([N+](=O)[O-])c1)N1CCN(S(=O)(=O)c2ccccc2)CC1,0.67,-6,-16,0.7,i,-7,-0.4,4.6,.
CN(Cc1ccncc1)C1CC(=O)N(c2ccc(Cl)cc2)C1=O (stereo unspecified),0.74,.,.,.,.,1,2.1,1.1,.
COc1ccc(CCC(=O)OCC(=O)Nc2sccc2C(N)=O)cc1,0.66,0,9,-0.9,i,1,-2.9,1.6,-3
CCCOc1ccc(CN2CCOCC2)cc1OC,0.69,6,-4,-6.6,i,-6,0.8,2.5,-8
COc1ccc(OC(=O)c2cnc3n(c2=O)CCS3)cc1,0.68,18,17,4.4,i,5,0.2,4.2,.
N#CC(C#N)=Cc1ccc(OC(=O)c2ccccn2)cc1,0.72,8,12,3.7,i,-2,0.6,5.7,97*
O=C(Nc1nc(-c2cc(F)ccc2F)cs1)C1=NN(c2ccccc2)C(=O)CC1,0.73,-17,-8,9.1,i,-6,3.2,2.8,-7
Cc1cccc[n+]1CC(=O)/C=C1\N(C)c2ccccc2C1(C)C,0.68,5,7,36,i,-29,16,17,-38
COc1ccc2c(CN(Cc3ccccc3)Cc3ccccc3)cc(=O)oc2c1,.,3,6,-0.7,i,.,2.9,.,.
CC(=O)c1c(C)[nH]c(C(=O)COC(=O)c2c(-c3ccccc3)noc2C)c1C,0.67,11,5,0.9,i,4,-0.7,-0.4,3
C/C(=N\NC(=O)c1ccoc1C)c1ccccc1,.,14,10,-0.7,i,10,1.1,.,0
COc1cc(=O)oc(CCC(C)O)c1C (stereo unspecified),0.69,5,11,4.5,i,-1,1.4,0.0,.
